Compound activity as filed in PubChem BioAssay.
gsp agonist – qHTS for Agonist of gsp, the Etiologic Mutation Responsible for Fibrous Dysplasia/McCune-Albright Syndrome: qHTS; gsp mutant cells, cAMP HTRF, 30 min; control for the full effect not named in the record; Potency, µM (series often up to 76.9 µM), for inactives: at the top dose activation (cAMP increase), actives largely listed as activators; actives 0.13% (n = 340,000); active = well fitted activation curve with a large enough effect; inconclusive = small, poorly fitted or top-dose-only effect, or another doubt; inactive = no such curve, though single readings can be large or run the other way; cell line not stated here;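 also: phosphodiesterase inhibitor Ro 20-1724 added with compounds to block cAMP breakdown; potency is read from the fitted curve at half-maximal effect; nearly all actives have a fitted effect of over 60% in size; about a fifth of the inactives were tested at one dose only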
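Cells stably selected in G418 were plated at 2000/well, grown 16-24 hr, then given compounds in DMSO with the PDE inhibitor […] (300 uM solution added) for 30 min at 37C; cAMP was read by HTRF.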
ClpP mod – qHTS Assay for Activators of ClpP | ATP-dependent Clp protease proteolytic subunit (Bacillus subtilis (strain 168)), P80244 | purified B. subtilis ClpP, FRET peptide cleavage, 20 min | Potency, µM (series often up to 57.5 µM), inactives show at the top dose activity change, negative = active | actives 1.9% (n = 340,000); active = well fitted falling curve with a large enough effect; inconclusive = small, poorly fitted or top-dose-only effect; inactive = no such curve, though single readings can be large or run the other way; also: potency is read from the fitted curve at half-maximal effect; the source files actives as falling curves though it sought activators and does not explain the sign; nearly all actives have a fitted effect of over 65% in size; many hits overshoot -100%
Target sequence (P80244 whole entry, looked up): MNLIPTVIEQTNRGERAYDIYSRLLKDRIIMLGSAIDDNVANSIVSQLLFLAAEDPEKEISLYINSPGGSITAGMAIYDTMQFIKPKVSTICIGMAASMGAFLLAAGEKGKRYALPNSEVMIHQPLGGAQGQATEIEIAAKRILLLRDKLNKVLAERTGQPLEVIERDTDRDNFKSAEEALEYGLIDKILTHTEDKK
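Purified B. subtilis ClpP, 10 microg/mL final in Tris/HCl pH8 with KCl, BSA, glycerol and Tween-20, cleaved an Abz/nitrotyrosine-quenched decapeptide. Fluorescence (ex 320, em 430) was read at 0 and 20 min at room temperature. Delta was normalized to 5.8 microM ADEP and DMSO/no-enzyme controls.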
PINK1 modulator – A Quantitative High throughput Screen to Identify Chemical Modulators of PINK1 Expression. PINK1 immunofluorescence, high-content cytometry, 24 h. Potency, µM (highest dose often 76.6 µM), inactives show at the highest dose activation (PINK1 increase), hits mostly activators. actives 0.2% (n = 410,000). AID 624263, 2012; active = well fitted activation curve with a large enough effect; inconclusive = small, poorly fitted or top-dose-only effect; inactive = flat fitted curve, though single readings scatter; cell line not stated here;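 also: potency is read from the fitted curve at half-maximal effect; % of control where 0% means no effect; nearly all actives have a fitted effect of over 65% in size; a mitochondrial uncoupler was the plate control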
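Cells are seeded, rested 12 hours, then given compound at five concentrations or DMSO for 24 hours. After fixation, blocking and antibody staining, PINK1 amount and mitochondrial localization are scored; CCCP serves as control.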
gsp antag – qHTS for Antagonists of gsp, the Etiologic Mutation Responsible for Fibrous Dysplasia/McCune-Albright Syndrome: qHTS; gsp-mutant cells, cAMP HTRF, 30 min; control for the full effect not named in the record; Potency, µM (titrated, usually from 76.9 µM), inactives show top-dose activity change, negative = inhibition, actives largely listed as inhibitors; actives 0.4% (n = 340,000); AID 624288, 2012; active = falling curve of any shape with a large fitted effect; inconclusive = falling curve, mostly with a smaller effect; inactive = flat or rising curve; cell line not stated here;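 also: intracellular cAMP measured with PDE inhibitor Ro 20-1724 present during compound exposure; potency is read from the fitted curve at half-maximal effect; % is scaled to controls: 0 for no effect and ±100 for the full control effect; nearly all actives have a fitted effect of over 65% in size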
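HTRF cAMP read-out (cAMP-d2 plus anti-cAMP antibody-K in lysis buffer, 30 min RT). Before lysis, cells are exposed to compounds with […] for 30 min at 37C in DPBS containing Ca/Mg, BSA and Tween 20.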
Menin MLL FP FL – qHTS Assay for Inhibitors Targeting the Menin-MLL Interaction in MLL Related Leukemias: Competition With Fluorescein Labeled MLL-derived Peptide | 290,000 tested, under 10 active | Fluorescence polarization, fluorescein-MLL peptide displacement from menin | FP activity change, % at 61.4 µM; inconclusive = falling polarisation curve, or a change in total fluorescence; inactive = total fluorescence flat and polarisation flat or rising; no compound was filed as active; the % refers to the polarisation; negative = inhibition;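 also: % of control where 0% means no effect; inhibitors lower the polarisation; unlabelled MLL peptide was the positive control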
Sfp inh – qHTS Assay for Inhibitors of Bacillus subtilis Sfp phosphopantetheinyl transferase (PPTase). 4'-phosphopantetheinyl transferase ffp (Bacillus subtilis), Q9F4F7. Biochemical Sfp PPTase activity, qHTS. Potency, µM, for inactives: max response, negative = inhibition, most hits filed as inhibitors. actives 3.5% (n = 310,000); active = well fitted inhibition curve with a large enough effect; inconclusive = small, poorly fitted or top-dose-only effect, or another doubt; inactive = no such curve, though single readings can be large or run the other way;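 also: the enzyme is Sfp with the accession as filed and its product quenches rhodamine fluorescence; potency is read from the fitted curve at half-maximal effect; 0% = enzyme reaction without inhibitor and -100% = no enzyme wells; top concentration of the series not given in the record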
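Fluorescence-quenching assay: 15 nM Sfp-PPTase preincubated 15 min at room temperature with compound, then 5 uM rhodamine-CoA and 12.5 uM BHQ-2-labelled YbbR peptide added. Fluorescence (ex 525/em 598 nm) read at start and after 30 min; difference gives rate.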
D2 agonist – Beta-Arrestin HTS for Positive Allosteric Modulators of the Human D2 Dopamine Receptor: Agonists. AID 624465, 2012. D(2) dopamine receptor (Homo sapiens), P14416. DiscoveRx PathHunter D2 beta-arrestin, luminescence, 90 min; 100% = 57 uM dopamine signal. actives 0.084% (n = 360,000). activation, % (concentration not given with the values); in the data active = activation above about 40%; inconclusive = about 15% to 40%; inactive = below about 15%; also: compound concentration not given in the record; the text of the record calls up to 30% inactive
Target sequence (P14416 whole entry, looked up): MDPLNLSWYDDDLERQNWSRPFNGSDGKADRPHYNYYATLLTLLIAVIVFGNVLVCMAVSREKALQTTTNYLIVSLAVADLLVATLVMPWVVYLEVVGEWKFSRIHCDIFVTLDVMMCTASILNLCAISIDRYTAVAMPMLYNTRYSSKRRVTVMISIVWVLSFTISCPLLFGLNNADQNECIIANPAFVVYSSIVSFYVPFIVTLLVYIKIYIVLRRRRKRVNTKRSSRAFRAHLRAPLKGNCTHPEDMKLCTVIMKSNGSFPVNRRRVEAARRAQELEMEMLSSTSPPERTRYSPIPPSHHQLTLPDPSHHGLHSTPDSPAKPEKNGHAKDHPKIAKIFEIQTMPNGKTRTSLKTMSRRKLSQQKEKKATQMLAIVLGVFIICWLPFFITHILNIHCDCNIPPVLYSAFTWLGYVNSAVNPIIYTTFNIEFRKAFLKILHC
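Agonist mode: compounds alone added to overnight-plated D2 PathHunter cells for 90 min at 37 C, with 57 uM final dopamine (EC100) defining full response. Beta-arrestin recruitment detected by chemiluminescent reagent, read after 1 h at ambient temperature.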
* = called active by the depositor; ? = inconclusive; · = no result given; & = joins results of further samples; [ ] = dose if it differs, or a comment.

SMILES	gsp agonist	ClpP mod	PINK1 modulator	gsp antag	Menin MLL FP FL	Sfp inh	D2 agonist
COc1cc2[nH]c(=O)n(CCC(=O)N3CC=C(c4ccccc4)CC3)c(=O)c2cc1OC	0%	?	0.7%	11%	3.8	13%	-1.9
COc1ccc(CNc2n[nH]c(NCc3ccc(OC)c(OC)c3)n2)cc1OC	0%	-1.3%	0.2%	0%	3.7	13%	-3.3
CC(C)n1cnc2c(Nc3cccc(Cl)c3)nc(NCCCO)nc21	6%	-17%	0.2%	-10%	4.4	21%	-2.6
CC(O)Cn1c(N2CCCC2)nc2c1c(=O)n(C)c(=O)n2C (stereo unspecified)	-5%	-0.4%	1.2%	-11%	0.5	7%	4.5
N/C(CSc1nc(-c2ccccc2)c(-c2ccccc2)o1)=N\O	-14%	?	1.7%	-4%	4.2	-14%	-0.3
COc1ccccc1C(=O)NC(CCSC)C(=O)NC1CC1 (stereo unspecified)	20%	-4.1%	0.4%	15%	·	·	-4.0
CCC(=O)N(c1ccc(C(=O)O)cc1)c1nc(-c2ccc(OC)cc2)c(C)s1	?	-0.9%	-1.9%	25µM*	-3.9	8%	6.5
CCCCCCCCOC(=O)C[N+](C)(C)C/C=C(/C)Cl	30%	1.1%	1.9%	10%	2.8	-2%	-4.0
CC(C)(CO)Nc1nc(Cl)nc(NC2CCCCC2)n1	1%	1.4%	0.6%	9%	2.2	3%	-7.4
COc1ccc(/C=C\c2cc(OC)c(OC)cc2CC[N+](C)(C)C)cc1OC	-1%[15.4 µM]	-1.0%	-0.5%	-40%	5.0	1%	6.9
ONC(=Nc1cccc(C(F)(F)F)c1)c1cccnc1	-83%[inhibitor]	-1.2%	0.0%	4%	2.4	13%	-1.5
COc1ccc(S(=O)(=O)N2CCCCC2)cc1NC(=S)Nc1cccc(Cl)c1C	-32%[15.4 µM]	-0.3%	1.2%	-3%	3.3	-7%	-3.4
CC1CCC(C(C)C)C(OC(=O)CSc2nnc(N)s2)C1 (stereo unspecified)	1%	2.0%	4.2%	3%	0.8	14%	-0.6
Cc1c(-c2ccc(F)cc2)[n+](=O)c2c(n1[O-])CCCCC2	1%	-2.2%	1.3%	-14%	0.8	-3%	0.7
CCOC(=O)COc1ccc(S(=O)(=O)N2CCN(c3ccccc3)CC2)cc1	-22%[15.4 µM]	2.7%	-1.6%	-17%	0.1	6%	-2.9
CCC(CC)NC(=O)c1ccc(NS(=O)(=O)c2ccc3[nH]c(=O)[nH]c3c2)cc1	13%	0.7%	-0.5%	-1%	·	?	-9.2
Cc1nn(C(C)C(=O)c2cccc(Cl)c2)c(C)c1[N+](=O)[O-] (stereo unspecified)	-3%[15.4 µM]	·	0.5%	5%	-5.9	1%	-0.4
CCOC(=O)N1CCN(S(=O)(=O)c2ccc(OC)c(C(=O)N3CCCCC3)c2)CC1	26%[15.4 µM]	-1.5%	-0.1%	-20%	1.0	-6%	1.0
O=C(NCN1C(=O)C2C3C=CC(C3)C2C1=O)Nc1nncs1 (stereo unspecified)	0%	-1.7%	1.0%	-7%	2.8	13%	0.7
CCNC(=O)CC1C(=O)N(c2ccc(F)cc2)C(=O)N1Cc1ccc(OC)cc1 (stereo unspecified)	-49%[inhibitor]	-1.5%	0.6%[38.3 µM]	-4%	-0.3	4%	-1.6
CCN(C=NC1=NN(c2cccc(C(F)(F)F)c2)CC1)CC	-1%	-2.8%	-0.1%	-15%	2.9	4%	-0.9
CCCCN(C(=O)Nc1ccc(Cl)cc1)C1CCN(C(C)=O)CC1	-85%[inhibitor]	1.9%&0.5%	0.4%&0.9%	4%	1.3	6%	-3.3
CC(=O)N1CCOc2ccc(S(=O)(=O)N3CCC(C(=O)Nc4ccc(C)cc4C)CC3)cc21	?	-0.5%	-0.9%	?	·	3%	-2.4
Cc1ccc(-n2nc(-c3cccs3)cc2C(=O)NCC2CCCO2)c(C)c1 (stereo unspecified)	9%	-10%	-0.4%	-27%	3.9	?	-0.3
NS(=O)(=O)c1ccc(CCNC(=O)CCc2ccccc2)cc1	5%[15.4 µM]	·	0.1%	-7%	·	·	0.4
O=C(N/N=C/c1ccc(OC(=O)c2ccccc2)c([N+](=O)[O-])c1)c1ccc(O)cc1	-46%[inhibitor]	-2.1%	-2.9%	-8%	3.1	-2%	-4.6
Cc1ccc(NC(=O)CN(C)C(=O)CCOc2ccccc2C)cc1	0%[15.4 µM]	0.7%	3.4%	7%	-4.3	2%	0.1
CC1(C(=O)NCc2ccccc2)Cc2c(-c3ccc4c(c3)OCO4)ccnc2O1 (stereo unspecified)	·	3.6%	6.0%	·	·	·	4.7
COc1cc(C2c3cc4c(cc3C(O)C3COCC23)OCO4)cc(OC)c1OC (stereo unspecified)	1%	·	7.5%	-9%	·	·	5.6
CCOc1ccccc1NC(=O)NC1Cc2ccccc2C1	17%	0.2%	5.5%	10%	-9.4	10%	-3.0
Cc1ccc2[nH]c(-c3ccccc3)c(CN3CCCC3)c(=O)c2c1	-3%[15.4 µM]	·	4.9%	-2%	4.8	-10%	1.4
CCc1nc2c(OCc3ccc(F)c(F)c3)cccn2c1N(C)C(=O)c1ccc(C)cc1	·	0.1%	5.2%	·	·	·	-3.6
O=C(COc1ccc(Cl)cc1)Nc1ccccc1CO	?	-4.5%	0.6%	-6%[15.4 µM]	5.4	-1%	0.0
CCN(CC)C(=O)OCCc1cc2ccccc2c(=O)o1	·	-1.6%	2.1%	3%	·	·	0.0
CSc1nc(C)c(C(=O)C[n+]2ccccc2)cc1C#N	?	-2.9%	-0.3%	8%	0.9	-6%	-1.2
Cc1ccc(N(CC(=O)NC2CCCC2)C(=O)CCC(=O)Nc2ccccn2)cc1C	-6%[15.4 µM]	·	-0.7%	-3%	-17	-1%	-2.0
O=C(NCCO)N1c2ccccc2Sc2ccccc21	5%[15.4 µM]	-2.7%	-0.5%	2%	-0.2	23%	1.1
Cc1ccc(NC(=S)NCc2ccc3c(c2)cc(C)n3C)c(C)c1	-11%	-1.9%	2.3%	-7%	-2.1	13%	-0.8
CCN(CC)C(=O)CSc1nc2cccnc2n1-c1ccccc1OC	12%	-0.5%	-0.4%	7%	0.6	1%	-1.3
CCC(=O)Nc1ccc(NC(=O)CSc2nnc(-c3ccc(O)cc3)n2CC2CCCO2)cc1 (stereo unspecified)	1%[15.4 µM]	·	0.0%	9%	-2.9	3%	-2.9
CC(CCc1ccccn1)C(=O)c1ccccc1 (stereo unspecified)	-3%[15.4 µM]	3.2%	1.4%	7%	·	·	-0.7
CN(C)CC(=O)c1c[nH]c2ccccc12	-15%	-0.4%&-0.9%	0.8%&1.5%	-17%	3.0	15%	-2.7
CSc1ccccc1OCc1cc(C(=O)N(C)Cc2cnccn2)no1	-13%	2.4%	0.5%	-3%	·	6%	-1.4
CN(C)c1ccc(Cc2cc3c(O)ccc(O)c3cc(Cc3ccc(N(C)C)cc3)c2=O)cc1	-49%	-2.2%	10%	-15%	·	·	?
COC(=O)c1nn(-c2ccc(OC)cc2)c(=O)cc1NN	-4%[15.4 µM]	·	2.1%	-19%	-2.9	5%	?
CCc1ccc2c(F)cccc2n1	·	-0.1%	0.9%	·	·	·	-0.8
O=C(N/N=C/c1cc(Cl)cc([N+](=O)[O-])c1O)NC12CC3CC(CC(C3)C1)C2	-16%	0.5%	?	-5%	0.3	-1%	-2.0
O=c1cc(CN2CCN(Cc3ccccc3)CC2)c2ccc(O)cc2o1	6%[15.4 µM]	·	0.6%	-8%	·	12%	-4.9
O=C1COC(c2ccccc2O)=NN1CCCl	?	-1.2%	-0.3%	·	·	·	-5.9
O=C(NC1=NCCS1)C1Cc2ccccc2CN1C(=O)c1ccccc1 (stereo unspecified)	20%	-0.9%	-1.3%	-12%	1.5	-8%	-1.0
CN1CCC(N(C)C(=O)c2cc(=O)c3ccccc3o2)CC1	9%[15.4 µM]	·	0.8%	-3%	1.2	13%	-6.9
Cc1cc(NS(=O)(=O)c2ccc(NC(=S)NC(=O)c3ccc(Br)cc3)cc2)no1	-30%	-21%	-0.6%	-28%	2.5	?	-1.6
CCOc1ccc(NC(=O)CCNS(=O)(=O)c2ccc3c(c2)CCC(=O)N3)cc1	-10%[15.4 µM]	-2.4%	2.0%	0%	-1.1	13%	-7.2
CCSc1nc(C)cc(Oc2ccc(=O)n(C)n2)n1	11%	-0.9%	6.3%[38.3 µM]	8%	-1.3	?	-0.9
CCn1c(SCC(=O)Nc2cc(C)ccc2C)nc2c(c1=O)SC(C)C2 (stereo unspecified)	?	-2.1%	4.3%	-11%	-2.0	26%	-2.3
Cc1ccc(NC(=O)C(=O)NCC2CCCO2)cc1C (stereo unspecified)	24%	0.5%	2.4%	-6%	-0.5	-4%	-0.9
CN(C)c1ccc(/C=N/NC(=O)c2cccc(C(=O)N/N=C/c3ccc(N(C)C)cc3)n2)cc1	-1%	1.4%	?	13%	0.3	6%	-1.4
COC(=O)c1sc2nc3c(cc2c1N)CCCC3	3%[15.4 µM]	·	1.0%	8%	0.0	-4%	0.0
CC(=O)N1CCN(c2ccccc2NC(=O)COc2ccc(Cl)cc2Cl)CC1	0%	-2.0%	-0.6%	11%	-0.9	-5%	-7.3
Cc1ccc2c(CC(=O)OCc3cc(=O)n4c(n3)sc3ccccc34)coc2c1	-1%	1.5%	0.5%	12%	-2.5	13%	-1.6
